# D2 PAM = human D2 receptor positive allosteric modulation. DiscoveRx D2 beta-arrestin cells, luminescence, 90 min; 100% = 57 uM dopamine signal. hit rate 0.23% among 360,000. AID 624464. potentiation, % (no concentration beside the values); active = potentiation of 50% or more; inconclusive = 30% to 50%; inactive = 30% or less;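 also: compound concentration not given in the record; tested on top of an EC20 dose of dopamine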
# Target sequence (P14416 whole entry, looked up): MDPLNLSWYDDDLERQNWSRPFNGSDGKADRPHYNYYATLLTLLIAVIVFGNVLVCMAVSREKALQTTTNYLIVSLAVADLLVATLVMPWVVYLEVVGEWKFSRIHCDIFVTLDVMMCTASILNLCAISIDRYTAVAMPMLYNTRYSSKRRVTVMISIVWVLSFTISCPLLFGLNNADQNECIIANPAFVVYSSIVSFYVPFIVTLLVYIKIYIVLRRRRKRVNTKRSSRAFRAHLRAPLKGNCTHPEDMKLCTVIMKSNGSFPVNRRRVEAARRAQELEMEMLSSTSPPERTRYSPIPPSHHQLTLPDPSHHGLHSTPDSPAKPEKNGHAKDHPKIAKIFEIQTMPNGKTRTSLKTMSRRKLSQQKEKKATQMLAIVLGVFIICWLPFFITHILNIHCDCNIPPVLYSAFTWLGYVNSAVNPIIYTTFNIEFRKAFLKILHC
#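 PathHunter beta-arrestin assay in DiscoveRx D2 cells. Compounds were added with an EC20 of dopamine (50 nM final) for 90 min at 37 deg C. Luminescence was read 1 h after detection reagent, with 57 uM dopamine as the EC100 control.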
# CtBP-E1A blk = CtBP/E1A binding inhibition; AlphaScreen GST-E1A/His-CtBP binding, 1536-well; stronger effect = lower value; control for the full effect not named in the record; activity change, % (concentration not given with the values); hit rate 0.49% among 340,000; in the data active means activity change below about -65%; inconclusive means about -30% to -65%; inactive means above about -30%; also: % is scaled to controls: 0 for no effect and ±100 for the full control effect
#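 AlphaScreen with 125 nM GST-E1A and 125 nM His-CtBP (5X stocks) in Tris pH 8.0, 300 mM NaCl, BSA, Tween 20, TCEP. Compounds preincubated 2 h at 37 deg C, then glutathione donor/nickel acceptor beads added for 1 h at 37 deg C in dark.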
# Sfp PPTase inh = blocks B. subtilis Sfp PPTase activity | hit rate 3.5% among 310,000 | Biochemical Sfp PPTase activity, qHTS | Potency, µM, for inactives: max response, negative = inhibition, usual class: inhibitors | Q9F4F7 | AID 1490; active = well fitted inhibition curve with a large enough effect; inconclusive = small, poorly fitted or top-dose-only effect, or another doubt; inactive = no such curve, though single readings can be large or run the other way;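 also: the enzyme is Sfp with the accession as filed and its product quenches rhodamine fluorescence; potency is read from the fitted curve at half-maximal effect; 0% = enzyme reaction without inhibitor and -100% = no enzyme wells; top concentration of the series not given in the record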
#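 Fluorescence-quenching assay with 15 nM Sfp, 5 uM rhodamine-CoA and 12.5 uM BHQ-2-labelled ybbR peptide in pH 7.6 Hepes/MgCl2 buffer. Enzyme was pre-incubated with compound for 15 min at room temperature. Rate was taken from the 30-min fluorescence change (525/598 nm).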
# PINK1 expr mod = PINK1 expression modulation. Potency, µM (series often up to 76.6 µM), without a hit: top-dose activation (PINK1 increase), usual class: activators. PINK1 immunofluorescence, high-content cytometry, 24 h. hit rate 0.2% among 410,000; active = well fitted activation curve with a large enough effect; inconclusive = small, poorly fitted or top-dose-only effect; inactive = flat fitted curve, though single readings scatter; cell line not stated here;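 also: potency is read from the fitted curve at half-maximal effect; % of control where 0% means no effect; nearly all actives have a fitted effect of over 65% in size; a mitochondrial uncoupler was the plate control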
#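 A stable cell line was treated with compounds at 5 concentrations for 24 hours, with CCCP as control. PINK1 levels and mitochondrial localization were measured by immunofluorescence with mitochondrial, cell and nuclear markers after fixation, read by laser-scanning cytometry.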
# Six1-Eya2 inh = Six1/Eya2 interaction inhibition; hit rate 0.56% among 360,000; AlphaScreen GST-Six1/His-Eya2 binding, biochemical; stronger effect = lower value; control for the full effect not named in the record; activity change, % (no concentration beside the values); Q15475+O00167; in the data active = activity change below about -65%; inconclusive = about -30% to -65%; inactive = above about -30%; also: % is scaled to controls: 0 for no effect and ±100 for the full control effect; compound concentration not given in the record
#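 GST-Six1 + His-Eya2 (5X stock: 250/500 nM); Tris pH 8.0, 300 mM NaCl, 0.05% BSA, 0.02% Tween 20; GSH donor/Ni acceptor beads; 1 h 37 °C dark; AlphaScreen readout.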
# D2 agonist = agonists of human D2 dopamine receptor (beta-arrestin). P14416. DiscoveRx PathHunter D2 beta-arrestin, luminescence, 90 min; 100% = 57 uM dopamine signal. activation, % (concentration not given with the values). hit rate 0.084% among 360,000. AID 624465; in the data active = activation above about 40%; inconclusive = about 15% to 40%; inactive = below about 15%; also: compound concentration not given in the record; the text of the record calls up to 30% inactive
#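 Agonist mode: compounds alone added to overnight-plated D2 PathHunter cells for 90 min at 37 C, with 57 uM final dopamine (EC100) defining full response. Beta-arrestin recruitment detected by chemiluminescent reagent, read after 1 h at ambient temperature.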
# TRPV1 potentiator = potentiators of human vanilloid receptor 1 (TRPV1); hit rate 0.02% among 320,000; Q8NER1; AID 540277; TRPV1-expressing cells, Fluo-8 calcium influx, capsaicin EC20 potentiation; host cell line not named in the record; control for the full effect not named in the record; potentiation, % at 8.33 µM; active means potentiation above 80%; inconclusive means 30% to 80%; inactive means below 30%; also: 0% is about no effect
#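 Fluo-8 calcium influx in TRPV1-expressing cells, kinetic read (ex 480/em 520 nm). Compound added and read 3 min for agonist activity, followed by capsaicin at EC20 final and 2 min further read for enhancement.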
# An asterisk follows results filed as active; ? = inconclusive; . = no result given; & = joins results of further samples; [ ] = another dose, or the depositor's remark.
entry	molecule	D2 PAM	CtBP-E1A blk	Sfp PPTase inh	PINK1 expr mod	Six1-Eya2 inh	D2 agonist	TRPV1 potentiator
1	CCNC(=S)Nc1cc(OCC)c(NC(=O)c2ccco2)cc1OCC	-20.8	-4.5	-2.4%	7.7%	-7.0	-1.9	-10.1
2	COc1ccccc1-c1nnn(CC#N)n1	-8.6	10.6	23.2%	.	3.7	0.1	-10.7
3	COC(C[C@H]1O[C@@H]1[C@@H](O)[C@H](C)OCc1ccccc1)OC	-1.0	2.7	10.8%	-0.2%	6.1	-1.0	-8.5
4	CSC[C@H](NC(=O)COc1cc2c(c3oc(=O)cc(C)c13)CCC(C)(C)O2)C(=O)O	15.3	4.2	10.2%	-0.9%	-3.7	4.2	-28.9
5	O=C1[C@H](O)[C@@H](O)C(=O)N1Cc1ccccc1	-5.2	-3.9	5.5%	-0.6%	-18.2	-3.5	15.3
6	COc1ccc(CNC(=O)CN2C(=O)CSc3ccc(S(=O)(=O)N4CCOCC4)cc32)c(OC)c1	-2.3	0.6	3.2%	-1.5%&3.0%	-0.5	0.2	-2.1
7	O=C(NC12CC3CC(CC(C3)C1)C2)c1cc(F)c(F)cc1Cl	-1.9	6.7	10.0%	-0.3%	1.2	2.0	-14.9
8	C/C(=N\OCC(=O)NC12CC3CC(CC(C3)C1)C2)c1cc2ccccc2o1	-9.4	2.0	?	?	3.4	-3.5	-7.4
9	O=C(O)C1C2C=CC(CC2)C1C(=O)O (stereo not given)	-8.9	-5.7	39.8µM*	-2.2%	-20.9	-1.0	5.9
10	CC(C)C[C@H]1CN=C(Nc2ccccc2)N1CCc1ccc(F)cc1	-67.1	0.7	.	-0.7%	1.7	-0.7	-6.2
11	O=C(O)Cn1ccnc1[N+](=O)[O-]	-6.7	11.3	.	-0.8%	0.0	-0.9	.
12	Cc1cc(C)c(S(=O)(=O)N2CCC3(CC2)OCCN3S(=O)(=O)c2cccs2)c(C)c1	6.9	0.1	.	-1.9%	-5.6	-0.6	3.5
13	COc1ccc(NC(=O)c2c(C)nn(-c3ccccc3)c2Cl)cc1	-6.0	3.8	13.2%	0.7%	-5.8	0.6	9.6
14	O=C(NNC(=O)c1cccc(O)c1)Nc1ccc([N+](=O)[O-])cc1	-10.9	-2.3	13.9%	-0.5%	3.6	-3.7	?
15	O=C(NC1CCCCC1)NC12CC3CC(CC(C3)C1)C2	-1.3	10.9	14.6%	3.3%	4.2	-3.8	-11.7
16	CCOc1ccc(C(CN2CCOCC2)C(C)=O)cc1OC (stereo not given)	-9.9	1.5	.	-1.1%	7.5	-4.4	.
17	CC1CN(S(=O)(=O)c2cc(C(=O)NCc3ccncc3)ccc2Cl)CC(C)O1 (stereo not given)	-0.6	1.9	.	1.6%	0.1	1.3	-14.8
18	CC(C)(Oc1ccc(C2CC2(Cl)Cl)cc1)C(=O)O (stereo not given)	-18.4	0.5	18.0%	-0.4%	10.4	-3.9	-14.7
19	OC(CNCc1ccc(Cl)cc1)COc1ccccc1 (stereo not given)	-21.2	.	-24.7%	0.5%	6.2	-5.7	-8.4
20	C#CCN(C[C@H]1[C@H](OC(=O)NCc2ccccc2)[C@H](OC(=O)NCc2ccccc2)C[C@H]2C(=O)N(c3ccccc3)C(=O)[C@@H]12)S(=O)(=O)c1ccc(C)cc1	2.8	-6.0	.	0.8%	-1.8	-7.8	.

# Next part:
entry	molecule	D2 PAM	CtBP-E1A blk	Sfp PPTase inh	PINK1 expr mod	Six1-Eya2 inh	D2 agonist	TRPV1 potentiator
21	C=CCn1c(SCc2nc3scc(-c4ccccc4)c3c(=O)[nH]2)nnc1-c1ccccc1F	-17.2	-4.8	1.4%	-1.0%	-5.4	1.4	-0.5
22	Nc1nc2ccccc2n1CCN1CCCC1	-8.6	-3.9	-5.3%	1.2%[38.3 µM]	1.8	1.8	18.2
23	O=C(NCCCN1CCOCC1)c1cccc(NC(=O)c2ccccc2)c1	-1.2	7.4	.	-2.6%	0.6	-0.2	.
24	COCCN(C(=S)Nc1ccccc1OC)C1CCN(C(C)C)CC1	-13.1	6.3	-9.2%	1.3%	14.2	-1.7	5.7
25	COC(=O)NCC(c1ccco1)N1CCN(c2ccc(OC)cc2)CC1 (stereo not given)	0.0	9.2	15.7%	0.2%	9.8	-1.0	8.0
26	COc1ccc(/C=N/NC(=O)CN(CCc2ccccc2)S(=O)(=O)c2ccc(NC(C)=O)cc2)cc1OC	-18.1	6.3	9.2%	1.6%	?	1.8	0.7
27	CCC(c1nnc(SCC(=O)NCC2CCCO2)n1Cc1ccccc1)N(C)C (stereo not given)	-3.9	5.1	.	-1.1%	13.9	-0.1	.
28	NC(=O)NCc1ccccc1F	4.2	9.1	9.9%	2.0%	-4.7	6.2	4.0
29	COc1cc(NC(=O)c2ccc3c(c2)OCCO3)ccc1NC(=O)c1cccs1	-7.7	?	12.5%	3.0%	?	0.7	-2.2
30	COC(=O)c1sccc1OCc1cccc(OC)c1	-2.0	.	9.6%	2.3%	19.8	2.0	-1.4
31	CC(=O)Nc1ccc2nc(NC(=O)COc3ccccc3Cl)sc2c1	-3.3	15.1	19.3%	?	-11.9	2.1	7.2
32	CCn1c(SCC(=O)Nc2cccc(C)n2)nc2c1c(=O)n(C)c(=O)n2C	6.0	1.7	-4.4%	1.5%	8.5	0.4	-2.5
33	C[C@H](NCc1c[nH]c2ccccc12)c1ccccc1	-5.6	1.3	5.5%	9.7%	-10.0	-5.1	-2.3
34	CCCc1ccc2oc(C(=O)N3CCCC3)c(C)c2c1	-0.3	7.1	-8.5%	6.6%	2.7	4.9	1.2
35	Cc1ccc(-n2nnnc2SCC(=O)c2c(N)n(C3CC3)c(=O)[nH]c2=O)cc1	-6.7	.	.	1.8%	9.1	-2.6	-3.6
36	O=C(Cc1ccc([N+](=O)[O-])cc1)Nc1nnc(C2CC2)s1	17.5	-1.2	15.3%	-0.2%	1.7	4.8	-3.8
37	CC(C)C(=O)Nc1c(-c2ccccc2Cl)c(=O)c2ccccc2n1C	-3.7	8.9	10.4%	0.4%	12.2	2.7	9.1
38	Nc1c(C(=O)O)sc2nc(-c3ccccc3)cc(-c3ccc(F)cc3)c12	-11.8	.	-2.7%	0.0%	25.9	-2.9	-5.0
39	CC1=CC(c2ccccc2)n2nc(NC(=O)CCCC(=O)O)nc2N1 (stereo not given)	-7.6	-0.3	2.6%	1.4%	4.7	-5.5	-6.5
40	COc1ccc2c(c1)c(C)cc[n+]2Cc1ccccc1	-0.1	0.2	20.8%	1.0%	-1.1	3.6	7.6

# Later entries.
entry	molecule	D2 PAM	CtBP-E1A blk	Sfp PPTase inh	PINK1 expr mod	Six1-Eya2 inh	D2 agonist	TRPV1 potentiator
41	O=C(CCN1C(=O)/C(=C/c2cccs2)SC1=S)Nc1ccc(C(=O)O)c(O)c1	-9.8	.	-15.6%	2.3%	?	-4.4	-7.1
42	COc1ccc2nc(C)cc(C(=O)O)c2c1	21.3	2.5	21.5%	1.6%	-0.5	1.4	20.5
43	CC(C)n1c(N2CCN(C(=O)Nc3ccccc3)CC2)nc2ccccc21	-13.5	2.8	-1.3%	-0.5%	3.3	4.5	-22.3
44	CCC(C)c1ccc(NC(=O)COC(=O)c2nc3nccc(C)n3n2)cc1 (stereo not given)	-1.9	.	-7.2%	-0.2%	-0.6	-3.0	-1.4
45	COc1ccc(OCC(=O)NNC(=O)C(=O)Nc2cc(OC)ccc2OC)cc1	2.8	-11.8	13.5%	-1.8%	?	2.7	22.2
46	O=C(Nc1ccc(Cl)cc1)C1Cc2c(-c3ccc4c(c3)OCO4)ccnc2O1 (stereo not given)	-12.7	-5.1	.	2.8%	-4.8	0.5	.
47	CC(C)N(Cc1nc2ccccc2c(=O)[nH]1)C(=O)c1ccc(NC(=O)CSc2nnnn2C)cc1	3.1	0.4	.	-2.1%	-1.4	-1.1	-0.9
48	CCOC(=O)c1ccc(NC(=O)c2nc[nH]c2C(=O)N(CC)CC)cc1	-8.5	.	19.8%	1.1%	5.8	-1.9	-10.9
49	COc1ccc(Cl)cc1NC(=O)Nc1ccccc1SC	-9.4	4.5	4.6%	11.3%	3.7	7.3	4.6
50	O=C(CN1CCc2ccccc2C1)NCC(=O)Nc1ccc(F)cc1	-12.9	1.5	7.9%	-0.3%	0.1	-5.0	-4.0
51	Cc1ccc2[nH]cc(CCNC(=O)C3CCCCC3)c2c1	-17.2	.	17.6%	0.4%	-1.9	-3.4	3.0
52	O=C(O)CNC(=S)N(Cc1ccccc1)Cc1cccnc1	-15.8	-0.6	10.6%	-0.5%	7.6	3.7	0.5
53	Cc1cc(Cl)c(S(=O)(=O)N2CCSCC2)cc1OCC(=O)NC1CCCCC1	-3.3	-3.8	-5.4%	0.3%[38.3 µM]	2.0	1.9	-8.3
54	Nc1ncnc2c1ncn2[C@@H]1O[C@H](CNCc2ccccc2)[C@@H](O)[C@H]1O	-8.7	9.4	.	-0.9%	-3.6	-0.1	.
55	COc1ccc(C(=O)NCC(=O)N/N=C/c2ccc([N+](=O)[O-])o2)cc1OC	6.7	5.8	-15.8%	0.0%	-0.7	6.9	6.1
56	NC(=O)c1cc(S(=O)(=O)N2CCOCC2)ccc1Sc1ccccc1N	-0.6	1.8	.	1.4%	3.5	-3.2	0.2
57	COc1ccc(Cc2c(O)nc(SCC(C)C)[nH]c2=O)cc1	-3.3	-2.6	0.3%	1.7%	-3.9	-5.3	15.2
58	CNC(=S)N1N=C(c2ccc(C)cc2)CC1c1cc(OC)ccc1OC (stereo not given)	-10.7	?	-6.0%	2.1%	?	-0.7	-1.1
59	CCc1nnc(NC(=O)CCC(=O)N2CCN(Cc3ccc(OC)c(F)c3)CC2)s1	-8.2	0.7	0.4%	-1.3%	1.4	-0.5	7.5
60	CC1Sc2ccccc2N(CC(=O)N(C(C)C)C(C)C)C1=O (stereo not given)	-6.7	-2.8	7.3%	-3.1%	1.0	-4.1	-12.6
61	CCO[C@H]1OC(C(=O)NCc2ccccc2)=C[C@@H](c2ccccc2)[C@@H]1CCCO	-15.5	3.5	14.1%	2.0%	0.7	1.4	-25.4
62	COc1ccccc1N1CC(C(=O)OCC(=O)c2ccc(F)cc2)CC1=O (stereo not given)	-12.6	4.7	8.5%	-1.3%	4.5	0.3	3.2
63	CCOC(=O)N1CCN(S(=O)(=O)c2ccc(C(=O)Nc3sc4c(c3C#N)CCC4)cc2)CC1	-16.5	-8.1	-10.0%	?	6.6	-2.9	13.8

# Bioassay records as filed in PubChem.

# Rows were taken by chance, and some 3.7% of all compounds hit somewhere here.
